Bioassay records from PubChem.
Mtb hypoxia inh – reduces hypoxia-regulated biosensor signal in M. tuberculosis; fluorescence inhibition, % (no concentration beside the values); M. tuberculosis hypoxia-regulated fluorescent reporter, fluorescence; AID 1159583; 0.1% of 300,000 active;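 active means 35 to 45% if threefold the growth effect, above 45% if 1.5-fold the growth effect; inactive means the rest, general growth blockers included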;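 further: wells of about 50 µL received 100 nL stock; 0% = vehicle wells and 100% = reference inhibitor wells; whole bacteria with a GFP reporter of the hypoxia response; strong numbers were not always called active; many hits fall short of the cut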
Bead autofluor – flagged as autofluorescent in microsphere protease counterscreen | fluorescence intensity (no concentration beside the values) | 3.1% of 360,000 active | compound autofluorescence counterscreen, microsphere flow cytometry; stronger effect = higher value;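 active means at least 3 SD above the mean of all compounds, about 16000 in these data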;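 further: 100 nL of 1 mM stock went into each well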
PrP UTR inh – suppresses PrP 5' UTR mRNA reporter expression; cell-based PrP 5' UTR mRNA reporter, plate reader; inhibition, % (no concentration beside the values); 0.35% of 340,000 active; AID 488862;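 active means every replicate at 50% or more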;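 further: 0 = median of the neutral control wells; tested in H4 reporter cells; numbers are from one replicate; inactives centre near -14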
BJeLR lethal – kills HRASV12-expressing BJeLR cells; inhibition, % (no concentration beside the values); BJeLR (HRASV12) viability, CellTiter-Glo ATP luminescence, 48 h; reference of the scale not given here; 0.17% of 300,000 active;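 active means replicate mean above 50%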;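 further: 50 nL library stock added to about 25 µL; numbers are from one replicate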
ugtP null kill – kills S. aureus RN4220 lacking UgtP | S. aureus RN4220 ugtP deletion, OD600 growth, 16 h; some inactives read as strong as hits | growth inhibition, % (test concentration not listed) | 0.54% of 330,000 active | AID 1259309;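 active means z-score under -3 and OD600 up to 0.15 on both plates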;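 further: plate controls were untreated wells for no effect and antibiotic for full effect; wells of about 80 µL received 100 nL stock; the first replicate is given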
RN4220 kill – kills Staphylococcus aureus RN4220; AID 1259311; 0.33% of 330,000 active; inhibition, % (test concentration not listed); S. aureus RN4220 growth, OD600, 16 h;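 active means z-score of -3 or lower and OD600 up to 0.18 on both plates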;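 further: plate controls were untreated cells for no effect and reference antibiotic for full effect; stock transfer was 100 nL into about 80 µL; one replicate is shown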
Mtb hypoxia inh growth – second read-out of Mtb hypoxia inh, no call of its own (marks repeat the call); growth inhibition, %; measured here: M. tuberculosis growth (absorbance);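 0% = vehicle and 100% = reference antibiotic; read after six days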
* marks the source's active call; other numbers are inactive results; x = no result given.

SMILES	Mtb hypoxia inh	Mtb hypoxia inh growth	Bead autofluor	PrP UTR inh	BJeLR lethal	ugtP null kill	RN4220 kill
Cc1ccc(N2Cc3ccccc3OC(C)C2=O)cc1 (stereo unspecified)	-2	-3	5246	-8	-3	5	6.7
Oc1ccc(-c2n[nH]c(=S)n2-c2ccc3c(c2)OCCO3)cc1	-7	-1	1970	-21	-10	10	-3.5
COc1ccccc1-n1nnnc1SCc1ccccc1	x	x	4858	-5	4	0	3.8
Cc1cc(NC(=O)Nc2ccc(F)c(Cl)c2)no1	2	9	9880	-23	-6	-19	-5.1
Cc1c(NS(=O)(=O)c2cc(NC(=O)CCN3CCCC(C)C3)ccc2Cl)c(=O)n(-c2ccccc2)n1C (stereo unspecified)	1	5	4597	-14	1	4	0.5
C(=N\Nc1ncnc2sc3c(c12)CCC3)/c1ccncc1	x	x	4344	1	-11	x	x
CNC(=O)c1ccc(-c2nc(-c3ccccc3)cs2)cc1	-8	-13	4474	-69	8	-3	-0.5
O=C(Nc1nc(-c2ccccn2)cs1)c1ccccc1-n1cnnn1	16	22	4585	26	15	5	7.2
COCCNC(=O)[C@H]1N2C(=O)c3ccccc3C2SC1(C)C (stereo partly specified)	1	2	3653	-18	-2	-7	0.7
Cc1ccc(C(=O)OCC(=O)c2ccc(Cl)s2)s1	x	x	3265	-67	-2	x	x
CN(CCN1CCOCC1)C(=O)CC1C(=O)NCCN1Cc1ccccc1F (stereo unspecified)	7	0	4371	-22	-6	9	5.0
Cc1cccc(NC(=O)c2ccccc2[N+](=O)[O-])n1	4	3	2990	-1	-12	-1	2.3
O=C(NCc1ccccc1)N1CCC(c2nc3ccccc3[nH]2)CC1	3	8	9612	-44	-5	1	7.0
COc1cc2c(cc1NC(=O)COC(=O)CNS(=O)(=O)c1ccc(C)cc1)oc1ccccc12	-3	3	2437	-33	1	-2	-1.5
COC(c1ccccc1)(c1ccccc1)C(Oc1nccc(C)n1)C(=O)O (stereo unspecified)	15	4	3768	-9	-4	6	3.3
CC(CN1CCN(c2ccccc2)CC1)c1ccccc1 (stereo unspecified)	0	0	7495	-4	-14	18	3.8
Cc1ccc(-c2ccc(OCC(=O)N3CCOCC3)cc2)cc1	6	5	2482	-16	5	-6	5.0
CC1CN(C(C)CO)C(=O)Cc2cc(NC(=O)Nc3ccc(C(F)(F)F)cc3)ccc2OC1CN(C)S(=O)(=O)c1cn(C)cn1 (stereo unspecified)	-13	0	x	x	x	-3	-4.2
CCn1c(=N)c(S(=O)(=O)c2ccccc2)cc2c(=O)n3ccccc3nc21	-5	7	4563	-31	-3	13	5.9
Cc1nn(CCO)c2c1C(=O)CCC2	x	x	4734	-13	-9	-5	1.8
Clc1ccc2c(NCc3ccco3)ncnc2c1	x	x	2308	-24	4	4	1.5
O=C(c1cc(=O)[nH]c2ccccc12)N1CCN(c2ccc([N+](=O)[O-])cc2)CC1	11	4	4117	-18	-5	3	3.4
CCC1(CC)Cc2ccccc2C(=C(C#N)C#N)N1	-1	6	3715	-11	0	9	1.0
Fc1ccc(-c2csc(N3CCSCC3)n2)cc1	19	-1	2408	-63	2	5	11
CC1CC(C)CN(C(=O)COC(=O)c2cc(S(=O)(=O)N3CCOCC3)ccc2F)C1 (stereo unspecified)	5	0	5005	7	-4	7	1.0
Cc1n[nH]c(=O)nc1N/N=C/c1ccc(O)c([N+](=O)[O-])c1	x	x	1944	-5	2	x	x
Cc1ccc(Cl)cc1N1CCN(Cc2nc3ccsc3c(=O)[nH]2)CC1	x	x	2210	6	12	-5	2.7
Cc1c(NC(=S)Nc2ccccc2C(F)(F)F)cccc1[N+](=O)[O-]	1	4	2098	-2	-7	-3	3.3
CN1CCN(S(=O)(=O)c2ccc(NC(=O)c3cccc(F)c3)cc2)CC1	-5	14	3682	2	13	6	-4.8
COc1ccc(/C=C2/SC(=S)NC2=O)cc1OCc1ccccc1	9	11	3780	0	0	72	73
Cc1ccccc1C(=O)N1CCC(C(=O)N2CCCc3ccccc32)CC1	5	9	8256	-10	x	-1	-1.2
COc1ccc(NC(=O)c2cccc(S(=O)(=O)N3CCOCC3)c2)cn1	9	3	2581	-11	1	2	1.9
O=C(/C=C/c1ccc(O)c(O)c1)c1ccccc1O	-7	4	5063	-14	5	0	0.2
O=C(NCC1CCCO1)c1cnc(Cl)c(Cl)c1 (stereo unspecified)	10	9	3554	-16	1	9	3.4
CC(NS(=O)(=O)c1ccc([N+](=O)[O-])cc1)C(c1cccs1)N1CCOCC1 (stereo unspecified)	-10	-11	2680	-7	4	1	4.1
CCN(Cc1ccccc1)c1ccc(C=NN2CCOCC2)cc1	12	-9	x	x	x	4	3.0

Just Mtb hypoxia inh (6 entries from above):
molecule | Mtb hypoxia inh
O=C(/C=C/c1ccc(O)c(O)c1)c1ccccc1O | -7
Cc1ccccc1C(=O)N1CCC(C(=O)N2CCCc3ccccc32)CC1 | 5
Cc1c(NC(=S)Nc2ccccc2C(F)(F)F)cccc1[N+](=O)[O-] | 1
COc1ccc(/C=C2/SC(=S)NC2=O)cc1OCc1ccccc1 | 9
COc1ccc(NC(=O)c2cccc(S(=O)(=O)N3CCOCC3)c2)cn1 | 9
CCN(Cc1ccccc1)c1ccc(C=NN2CCOCC2)cc1 | 12

(list continues)
SMILES	Mtb hypoxia inh	Mtb hypoxia inh growth	Bead autofluor	PrP UTR inh	BJeLR lethal	ugtP null kill	RN4220 kill
Cc1cc(=O)n2nc(N3CCC(C(=O)Nc4c(F)c(F)c(F)c(F)c4F)CC3)sc2n1	7	-2	6593	-16	-2	-3	0.2
Cc1ccc(NC(=O)C(OC(=O)c2ccc(F)cc2)c2ccccc2)cc1Cl (stereo unspecified)	10	2	2627	-22	-7	7	-16
Cn1c(=O)c2c(nc(NC3CCCCC3)n2CC(=O)C23CC4CC(CC(C4)C2)C3)n(C)c1=O	x	x	3487	-13	7	-11	6.3
O=C(CN1CCSC1=NCc1ccccc1)c1ccc(Cl)c(Cl)c1	2	0	2390	-19	2	52	4.4
Cc1cccc(/C=N\NC(=O)c2ccc(Cl)cc2)c1O	x	x	5096	-29	4	x	x
O=C(O)C(NC(=O)C1CCCN1C(=O)OCc1ccccc1)c1ccccc1 (stereo unspecified)	4	3	4125	-8	-4	5	1.4
CC(C)(C)c1ccc(C2=CC(c3ccccc3F)n3ncnc3N2)cc1 (stereo unspecified)	13	2	3975	-8	-3	6	3.4
Fc1ccc(N=Cc2ccc[nH]2)cc1	14	-2	6108	-19	-7	4	4.4
COc1ccc(C(=O)Nc2ccc(C(=O)N3CCCC3)cc2)cc1[N+](=O)[O-]	-4	-2	4391	-3	4	0	3.1
CN(c1cccc(NC(=O)c2ccccc2N(C)S(C)(=O)=O)c1)S(C)(=O)=O	6	8	9232	-22	3	3	6.4
CCNC(=O)CN(c1ccc(F)cc1)S(=O)(=O)c1ccc2c(c1)OCCO2	1	-4	3025	-20	1	-3	1.0
COc1ccc(NC(=O)CSc2nc(C)cs2)c(OC)c1	4	8	4240	-10	-6	-2	1.5
COc1ccccc1N1CCN(C(=O)C2CCN(S(=O)(=O)c3ccc4c(c3)CC(C)N4C(C)=O)CC2)CC1 (stereo unspecified)	0	3	5554	-9	0	5	2.0
C#CCn1cc(/C=N/NC(=O)COc2cccc3cccnc23)c2ccccc21	x	x	2193	-9	-14	x	x
COc1ccc(/C=N/NC(=O)c2ccc(Br)cc2)cc1Cn1cc(Cl)cn1	x	x	2237	-25	-1	x	x
C/C(=N/NC(=O)CNC(=O)c1cccnc1)c1ccc([N+](=O)[O-])cc1	x	x	4104	-12	3	x	x
COc1ccc(NC(=O)CC(c2ccccc2)c2ccco2)cc1 (stereo unspecified)	7	2	4618	-11	5	2	6.8
CCN(CC)C(=O)CC(c1ccccc1)c1ccco1 (stereo unspecified)	4	0	24247*	-17	3	1	4.2
COc1cccc(C=NNC(=O)CSc2cccc3cccnc23)c1	1	-5	x	x	x	5	1.8
COc1ccc(S(=O)(=O)N(CC(=O)NCc2cccnc2)c2ccc(C)cc2)cc1OC	11	0	3818	-14	0	0	2.1
CCCN1C(=O)N(c2cccc(C)c2)C(C)(O)CC1(C)C (stereo unspecified)	4	4	3687	x	-2	6	5.7
FC(F)(F)c1ccccc1-n1c(CN2CCCCC2)n[nH]c1=S	0	7	6253	12	4	-1	3.8
COc1ccc(C2CC(c3cccc(OC)c3)n3nc(N)nc3N2)cc1 (stereo unspecified)	x	x	5851	-33	-6	5	3.4
Cc1ccc(-n2c(C)cc(=O)cc2C)c(C)c1	16	3	2498	-15	-6	0	-0.5
OCC1(CCc2ccccc2)CCCN(CCCC(F)(F)F)C1 (stereo unspecified)	-5	-4	3662	-14	10	-3	0.9
O=C(N/N=C/c1cccc([N+](=O)[O-])c1)C1CC1c1ccccc1 (stereo unspecified)	x	x	7649	-6	6	x	x
O=C(Nc1ccc(F)cc1F)c1ccco1	9	1	8021	5	0	12	3.8
CCOC(=O)C1OC1(c1ccccc1)c1ccccc1 (stereo unspecified)	1	5	3753	-7	x	6	3.1
N=C1c2ccccc2CN1NC(=O)c1ccc(Cl)cc1	2	3	6560	-15	10	6	2.5
Cc1ccc(Cn2c(=O)oc3ccccc32)cc1	8	-7	3640	4	4	8	9.8
COC(=O)C1CCN(Cc2ccc(C)cc2)CC1	x	x	2317	-7	10	-8	-0.4
CC(O)c1nc2ccccc2n1CCCOc1ccccc1 (stereo unspecified)	10	-1	4120	-9	-5	-3	1.5
CC(=O)Nc1ccc(Nc2ncnc3c2cnn3-c2ccccc2)cc1	-1	-3	23123*	-17	0	3	2.0
CCOC(=O)C(=NC(C)(C)C)NNc1cc(Cl)ccc1Cl	-1	2	2499	-7	10	49	19
COc1ccc(Cl)cc1NC(=O)CN(C)C(=O)c1cc(C)oc1C	8	8	8222	-15	x	3	1.9
Cc1ccc(C(=O)Nc2cccc(C(=O)N/N=C/c3ccc(O)cc3)c2)cc1	x	x	3137	24	-8	x	x
COc1ccc(NS(=O)(=O)c2ccc(-c3cnc(C4CC4)o3)cc2)cc1OC	1	5	5127	-31	35	-8	1.4
Cc1ccc(C=NNC(=O)c2ccc3nc[nH]c3c2)s1	17	5	x	x	x	0	3.7
Cc1nc(NCCCn2ccnc2)c2oc3ccccc3c2n1	6	7	3419	-17	1	-4	-6.4
COCCNC(=O)C(C)OC(=O)C1=Cc2ccccc2OC1 (stereo unspecified)	-3	-2	3157	-27	7	15	9.6
c1cnc(SCCCOc2ccc3ccccc3c2)nc1	x	x	x	-22	-1	14	10.0
O=C(Nc1cccnc1)C(N=Nc1cccnc1)=C(O)c1ccccc1	0	-7	x	x	x	-21	12
O=C(CC1Nc2ccccc2NC1=O)NC1CCCCC1 (stereo unspecified)	19	11	9817	-20	x	6	0.4
O=C(NCCN1CCN(S(=O)(=O)c2ccc([N+](=O)[O-])cc2)CC1)C(=O)Nc1ccccc1	-11	-10	4983	-2	2	7	2.8
CCc1c(C)nc(SCC(=O)N2CCCCC2C)[nH]c1=O (stereo unspecified)	9	-2	4443	-13	4	8	5.3
Cc1c(CCC(=O)O)c(=O)oc2cc(O)ccc12	3	7	8789	-40	-9	-1	2.7
Cc1ccc(-n2ncc3c2CC(C)(C)CC3NC(=O)c2ccccn2)cc1 (stereo unspecified)	2	16	6047	14	3	10	-0.8
COc1ccc(CN2CCC(=O)N([C@H](CO)Cc3ccccc3)CC2)cc1OC	x	x	3434	-10	2	x	x
Cc1ccc(C2(O)C(=O)c3ccccc3C2=O)c(O)c1C	-7	1	x	-4	-2	5	4.6
Cc1c(C(=O)NN)nc2ccccn12	8	9	1998	-20	-1	5	2.1
Cc1ccc(C)c(SCC(=O)NC(=O)NCc2ccccc2)c1	1	7	10619	-12	-9	2	7.0

2 entries from above in another layout.
CCc1c(C)nc(SCC(=O)N2CCCCC2C)[nH]c1=O (stereo unspecified)
  Mtb hypoxia inh: 9	Mtb hypoxia inh growth: -2	Bead autofluor: 4443	PrP UTR inh: -13	BJeLR lethal: 4	ugtP null kill: 8	RN4220 kill: 5.3

Cc1ccc(-n2ncc3c2CC(C)(C)CC3NC(=O)c2ccccn2)cc1 (stereo unspecified)
  Mtb hypoxia inh: 2	Mtb hypoxia inh growth: 16	Bead autofluor: 6047	PrP UTR inh: 14	BJeLR lethal: 3	ugtP null kill: 10	RN4220 kill: -0.8
